# NPYLR7 ag – activates Aedes aegypti NPYLR7 receptor. HEK293T NPYLR7/Galpha15, GCaMP6s calcium fluorescence. activation, % at 10 µM. hit rate 0.15% among 270,000. AID 1259423; in the data active = activation above about 40%;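 note: 0% = vehicle and 100% = reference agonist at the receptor; some compounds past the cut are filed as inactive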
# NPYLR7 ag max-min – also measured in NPYLR7 ag; calls as there; activation, %; measured here: Max-Min RFU normalised activation; some inactives read as strong as hits;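 span of the calcium signal over five minutes; 0% = vehicle and 100% = native peptide agonist; compound fluorescence can raise it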
# Numbers without * were called inactive; & = joins results of further samples. Some of the compounds tested. The share of hits here may be higher or lower than overall.
[1] C=CCN1C(=O)/C(=C\c2ccccc2F)SC1=S
[2] Cn1c(=O)c2c(nc(Sc3ncccn3)n2Cc2ccccc2Cl)n(C)c1=O
[3] Cc1cccc(CO[C@]2(C(=O)NCCN3CCCC3)CC(OCc3ccc(C(F)(F)F)cc3)[C@H](O)[C@H](O)C2)c1 (stereo partly drawn)
[4] O=C(CC1COCCN1)NCCc1cnn(-c2ccccc2)c1 (stereo not drawn)
[5] COc1cccc(OC)c1-c1cnnc(N(C)CCC(O)c2ccccc2)n1 (stereo not drawn)

assay / entry,1,2,3,4,5
NPYLR7 ag,-6,-2,-1,-4,1
NPYLR7 ag max-min,-13,0,7,-5,-1

[6] COCCN(CC(F)(F)F)C(=O)Nc1cn[nH]c1
[7] COc1cccc(-c2n[nH]c(=O)n2Cc2ccco2)c1
[8] CN(Cc1ccccc1C(F)(F)F)C(=O)c1cn(Cc2ccc(F)cc2)nn1
[9] C[C@H]1[C@@H]2[C@H]3OC(=O)[C@@H](C)[C@@H]3CC[C@@]2(C)CC[C@@H]1NC(=O)Cc1ccccc1
[10] CCCCn1c(=O)c2c(nc3n(CCO)c(C)c(C)n23)n(C)c1=O

assay / entry,6,7,8,9,10
NPYLR7 ag,6,4,17,6,15
NPYLR7 ag max-min,3,2,3,4,13

[11] Cc1ccc(C(C)C)c(OCCOc2ccccc2/C=N\n2cnnc2)c1
[12] Cc1cc(S(=O)(=O)N2CCN(C(=O)c3ccc(-n4cccn4)cc3)CC2)ccc1Br
[13] C=C(C)Cn1c(N/N=C\c2cccc(O)c2)nc2c1c(=O)n(C)c(=O)n2C
[14] O=C1CCc2cc(-c3csc(=Nc4ccccc4)n3CCCn3cccn3)ccc2N1
[15] CCOC(=O)c1[nH]c(CSc2nncs2)c(C(=O)OCC)c1C

assay / entry,11,12,13,14,15
NPYLR7 ag,1,-4,-7,-6,2
NPYLR7 ag max-min,0,1,-9,-11,5

[16] CCc1nc2c(OCC(=O)c3ccc(F)cc3)cccn2c1N(C)C(=O)C1CC1
[17] CN(CCc1cnn(C)c1)C(=O)c1cn(Cc2cccc(C(F)(F)F)c2)nn1
[18] CCc1oc(C(N)=O)cc1CN1CCOC(c2ccc(Cl)c(Cl)c2)C1 (stereo not drawn)
[19] CSc1nccc(Sc2cn[nH]n2)n1
[20] CCN(Cc1noc(C2CCC2)n1)Cc1nc[nH]c1C

assay / entry,16,17,18,19,20
NPYLR7 ag,2,-1,-6,0,9
NPYLR7 ag max-min,0,-3,-8,5,-1

# A draw from above in order of molecular weight, ascending:
[19] CSc1nccc(Sc2cn[nH]n2)n1
[6] COCCN(CC(F)(F)F)C(=O)Nc1cn[nH]c1
[7] COc1cccc(-c2n[nH]c(=O)n2Cc2ccco2)c1
[20] CCN(Cc1noc(C2CCC2)n1)Cc1nc[nH]c1C
[1] C=CCN1C(=O)/C(=C\c2ccccc2F)SC1=S
[4] O=C(CC1COCCN1)NCCc1cnn(-c2ccccc2)c1 (stereo not drawn)
[10] CCCCn1c(=O)c2c(nc3n(CCO)c(C)c(C)n23)n(C)c1=O

assay / entry,19,6,7,20,1,4,10
NPYLR7 ag,0,6,4,9,-6,-4,15
NPYLR7 ag max-min,5,3,2,-1,-13,-5,13

[15] CCOC(=O)c1[nH]c(CSc2nncs2)c(C(=O)OCC)c1C
[11] Cc1ccc(C(C)C)c(OCCOc2ccccc2/C=N\n2cnnc2)c1
[13] C=C(C)Cn1c(N/N=C\c2cccc(O)c2)nc2c1c(=O)n(C)c(=O)n2C
[9] C[C@H]1[C@@H]2[C@H]3OC(=O)[C@@H](C)[C@@H]3CC[C@@]2(C)CC[C@@H]1NC(=O)Cc1ccccc1
[18] CCc1oc(C(N)=O)cc1CN1CCOC(c2ccc(Cl)c(Cl)c2)C1 (stereo not drawn)
[8] CN(Cc1ccccc1C(F)(F)F)C(=O)c1cn(Cc2ccc(F)cc2)nn1
[16] CCc1nc2c(OCC(=O)c3ccc(F)cc3)cccn2c1N(C)C(=O)C1CC1

assay / entry,15,11,13,9,18,8,16
NPYLR7 ag,2,1,-7,6,-6,17,2
NPYLR7 ag max-min,5,0,-9,4,-8,3,0

[2] Cn1c(=O)c2c(nc(Sc3ncccn3)n2Cc2ccccc2Cl)n(C)c1=O
[12] Cc1cc(S(=O)(=O)N2CCN(C(=O)c3ccc(-n4cccn4)cc3)CC2)ccc1Br
[3] Cc1cccc(CO[C@]2(C(=O)NCCN3CCCC3)CC(OCc3ccc(C(F)(F)F)cc3)[C@H](O)[C@H](O)C2)c1 (stereo partly drawn)

assay / entry,2,12,3
NPYLR7 ag,-2,-4,-1
NPYLR7 ag max-min,0,1,7

# (list continues)
[21] CCCc1c(C(=O)O)cnn1-c1ccc([N+](=O)[O-])cc1
[22] CCn1nc(C)c(CNC2CCN(c3ccc(CC(=O)N4CCC[C@H]4C(=O)OC)cc3)CC2)c1C
[23] FC(F)(F)c1cccc(-c2cc3c(cn2)ncn3-c2ccccc2)c1
[24] Cc1ccc(CN(CCc2ccccc2)C(=O)CN(CCN2CCOCC2)C(=O)c2cccs2)o1
[25] CCCC(=O)N(CCN1CCOCC1)c1nc2c(C)ccc(C)c2s1

assay / entry,21,22,23,24,25
NPYLR7 ag,3,23,9,-2,9
NPYLR7 ag max-min,3,10,-1,6,9

[26] COc1ccc(CCC(=O)CC#N)cc1
[27] CCOC(=O)N1CCN(c2c(NCCCOC(C)C)c(=O)c2=O)CC1
[28] CCOCCCn1c(SCCN(C(C)C)C(C)C)nc2cc(S(=O)(=O)N3CCCC(C)C3)ccc21 (stereo not drawn)
[29] Cc1cccc(C(=O)N[C@H](C(=O)OCc2cc(Cl)cc3c2OCOC3)C(C)C)c1
[30] CC(C)OCc1ccc(CN)cc1

assay / entry,26,27,28,29,30
NPYLR7 ag,6,9,7,3,12
NPYLR7 ag max-min,3,10,-3,10,5

[31] Cc1cc(C)n(CCCNC(=O)c2cccc(C3CCNC3)c2)n1 (stereo not drawn)
[32] Cc1ccc(C2=Nc3ncnn3C(c3cccc(C(F)(F)F)c3)C2)cc1 (stereo not drawn)
[33] COC(=O)CSc1ncnc2c1nnn2-c1ccc(OC)cc1
[34] CCC(C(=O)N(Cc1cc(NC(=O)C2CCC2)ccc1N(C)C)CC1CCCO1)c1ccccc1 (stereo not drawn)
[35] CCN(Cc1ccccn1)C(=O)c1csc2nc(-c3ccccc3Cl)cn12

assay / entry,31,32,33,34,35
NPYLR7 ag,5,10,16,8,1
NPYLR7 ag max-min,-1,5,13,21,-1

[36] COC[C@H]1CCC[C@H]1Nc1nc(C)nc2c1cnn2C
[37] CN(Cc1nc(-c2ccncc2)no1)C1CCC2(CCNCC2)CC1
[38] O=C(CC1CCc2ccccc21)NCc1cccnc1N1CCOCC1 (stereo not drawn)
[39] CCCOc1ccccc1C1NC(=O)NC(C)=C1C(=O)OCCSC (stereo not drawn)
[40] COc1ccc(CNC2CCCc3ccccc32)cc1OC (stereo not drawn)

assay / entry,36,37,38,39,40
NPYLR7 ag,15,1,2,14,-5
NPYLR7 ag max-min,5,0,-1,15,-8

[41] CCC(c1nc2ccccc2c(=O)n1-c1ccc(C)c(C)c1)N(Cc1ccccc1)C(=O)Nc1cccc(F)c1 (stereo not drawn)
[42] CC(C)NC(=O)CSc1nc2c(cnn2CCO)c(=O)[nH]1
[43] CN(CCC1CCCCC1)C(=O)Nc1ccsc1
[44] CCn1cc(CN(C)Cc2cnn(-c3ccc(F)cc3)c2)cn1
[45] CCc1ccc(NC(=O)C(C#N)C(=O)C2CC(=O)N(C3CCCC3)C2)cc1 (stereo not drawn)

assay / entry,41,42,43,44,45
NPYLR7 ag,18,5,-2,8,3
NPYLR7 ag max-min,16,3,-3,6,1

[46] Cc1ccc(OC2(C(=O)N3CCC(N4CCCC4)CC3)CCNCC2)cc1
[47] CCOc1cc(/C=C2/NC(=S)NC2=O)ccc1OCc1ccc(Cl)cc1Cl
[48] CCn1c(=O)c(C(=O)N2CCN(C(C)=O)CC2)nn(-c2ccc(C)c(Cl)c2)c1=O
[49] CCOC(=O)c1nc2ccccc2nc1N1CCCN(S(=O)(=O)c2cccc(OC)c2)CC1
[50] COCCOc1nc(-c2cccc(OC)c2)n(-c2ccc(NC(=O)c3cccc(F)c3)cc2)n1

assay / entry,46,47,48,49,50
NPYLR7 ag,21,-12,-5,4,-6
NPYLR7 ag max-min,9,-14,-5,-1,7

[51] CCCCCC(O)CCCC(=O)O (stereo not drawn)
[52] O=C1CN(Cc2nc3ccccc3c(=O)n2-c2ccc(F)cc2)CCN1
[53] CN1CCC(n2nccc2NC(=O)c2cccnc2Sc2cccc(C(F)(F)F)c2)CC1
[54] CS(=O)(=O)c1ccc(-n2ncc3c2CCN(C(=O)NCc2cccc(F)c2)C3)cc1
[55] CNC(=O)c1ccc(CN(C)Cc2c(O)ccc3ccc(OC)cc23)cc1

assay / entry,51,52,53,54,55
NPYLR7 ag,-3,-3,7,0,8
NPYLR7 ag max-min,-18,-4,4,29,7

[56] Cc1nc(Nc2ccc(NC(=O)Nc3ccccc3Cl)cc2)cc(-n2cccn2)n1
[57] O=C(Nc1ccc(Nc2ccc(-n3cccn3)nn2)cc1)c1ccc(Br)cc1
[58] Cc1nc2c(N(C)CC3Cc4ccccc4CN3C)ncnc2o1 (stereo not drawn)
[59] Cc1cc(=O)oc2cc(OCC(=O)Oc3ccc4c(c3)OCO4)ccc12
[60] Cn1c(C2CCN(S(C)(=O)=O)CC2)nn(CC(=O)Nc2ccccc2)c1=O

assay / entry,56,57,58,59,60
NPYLR7 ag,-8,-6,2,8,6
NPYLR7 ag max-min,-11,-13,4,12,14

[61] Cc1ccc(C)c(OC(C)C(=O)NCCc2nc3c(C)cccc3[nH]2)c1 (stereo not drawn)
[62] CC(=O)N1CCN(c2nc(N3CCOCC3)nc(-n3ccnc3)n2)CC1
[63] O=C1CSC(c2cccc(F)c2)N1CC(O)c1ccccc1 (stereo not drawn)
[64] Cc1ccc(C)c(OCc2cc(C(=O)N3CCN(c4ccccc4Cl)CC3)no2)c1
[65] CCOCCn1c(=O)c2c(nc3n(-c4ccc(Cl)cc4)c(C)c(C)n23)n(C)c1=O

assay / entry,61,62,63,64,65
NPYLR7 ag,0,-12,-1,7,4
NPYLR7 ag max-min,-3,-17,-4,3,-1

[66] c1cn(CCSc2cn[nH]n2)c(-c2ccc3c(c2)OCCO3)n1
[67] CC1CN(c2ccc(N(C)C)cc2)c2nc3c(c(=O)[nH]c(=O)n3C)n2C1 (stereo not drawn)
[68] C[C@H](C(=O)NCC1CC1)N1Cc2ccc(-c3ccnn3C)nc2C1=O
[69] O=C(CN(C(=O)Nc1ccc(Cl)cc1Cl)C1CC1)N(Cc1ccc(F)cc1)Cc1cccs1
[70] Cc1cccc(Cn2c(C(=O)N3CCN(Cc4ccccc4)CC3)cc3ccoc32)c1

assay / entry,66,67,68,69,70
NPYLR7 ag,5,2,-6,15,2
NPYLR7 ag max-min,1,-3,-8,10,8

[71] CCOC(=O)CCc1c(C)nc2ncnn2c1NC1CC1
[72] O=c1[nH]nc(-c2ccccc2)c2c1-n1nnnc1NC2c1ccccc1 (stereo not drawn)
[73] COCc1cn([C@H]2CO[C@H]3[C@@H]2OC[C@H]3OC(=O)Nc2ccc(C)cc2)nn1
[74] CCC(C)NC(=O)c1ccccc1NC(=O)C1CCCCC1C(=O)O (stereo not drawn)
[75] O=C/C(=C\Nn1cnnc1)c1nc2ccccc2o1

assay / entry,71,72,73,74,75
NPYLR7 ag,0,-2,-10,14,0
NPYLR7 ag max-min,-2,-3,-17,5,1

[76] CC(C)n1c(C2CCCN2c2ccc(C#N)cn2)nc2ccccc21 (stereo not drawn)
[77] COC(=O)c1cc(OC)c(OC)cc1NC(=O)c1cc(F)cc(F)c1
[78] Cc1cc(C)cc(C(O)CN2CCC(CN3CCCCC3=O)CC2)c1 (stereo not drawn)
[79] O=C(CCn1c(-c2ccc(F)cc2)n[nH]c1=S)NCc1ccccc1
[80] C=CCn1c(=NC(=O)c2ccc(C(C)=O)cc2)sc2cccc(OCC)c21

assay / entry,76,77,78,79,80
NPYLR7 ag,3,-6,9,6,1
NPYLR7 ag max-min,1,0,6,-2,0

# Entries 76 to 77 of the list above:
[76] CC(C)n1c(C2CCCN2c2ccc(C#N)cn2)nc2ccccc21 (stereo not drawn)
[77] COC(=O)c1cc(OC)c(OC)cc1NC(=O)c1cc(F)cc(F)c1

assay / entry,76,77
NPYLR7 ag,3,-6
NPYLR7 ag max-min,1,0

# (continued)
[81] COc1ccccc1-c1cc(C(=O)N2CCN(c3cccc(Cl)c3)CC2)nc2cc(C(C)(C)C)nn12
[82] O=C(O)C1CCCCC1C(=O)N1CCCc2ccccc21 (stereo not drawn)
[83] Cc1cccc(-c2nc(C)c(C)c(N3CCN(C(=O)NC45CC6CC(CC(C6)C4)C5)CC3)n2)c1
[84] CC(C)(C)NC(=O)COc1ccc(-c2ccc(C#N)cc2)cc1
[85] C=Cn1ccnc1P(c1ccccc1)c1nccn1C=C

assay / entry,81,82,83,84,85
NPYLR7 ag,-11&20,1,18,-1,-8
NPYLR7 ag max-min,-10&25,0,16,-1,-8

[86] O=C1OC(c2ccc([N+](=O)[O-])cc2Cl)=N/C1=C\C(Cl)=C\c1ccccc1
[87] Cc1ccccc1CC(=O)Nc1cccc(N2CCCNC2=O)c1
[88] Cc1ccc(CC2SC(N)=NC2=O)cc1Cl (stereo not drawn)
[89] Cc1cccc(Oc2nc3ccccn3c(=O)c2/C=C(\C#N)c2nc3ccccc3s2)c1
[90] O=C(c1ccc(N2CC=CCC2)nc1)N1CCC(N2CCOCC2)CC1

assay / entry,86,87,88,89,90
NPYLR7 ag,0,8,-3,89*,5
NPYLR7 ag max-min,-4,3,-6,101*,3

[91] O=C(c1ccc(Cl)cc1Cl)N1CCN(C(C(=O)N2CCSCC2)C2CCCC2)CC1 (stereo not drawn)
[92] CCCCCCCC(=O)N(CCCOC)CC(=O)N(Cc1ccccc1)Cc1sccc1C
[93] O=C(c1ccc(Br)s1)N(Cc1cccnc1)c1nc2cc3c(cc2s1)OCO3
[94] c1ccc(CN2CCC(c3nnc4n3CCCCC4)CC2)cc1
[95] C[N+]1=C(c2ccccc2)c2c(Br)cc(Br)n2CC1

assay / entry,91,92,93,94,95
NPYLR7 ag,-6,23,-20,5,-2
NPYLR7 ag max-min,25,21,-14,3,10
